MITF inh: inhibitors of MITF, primary screen, MITF inhibitor project, cell-based, luminescence; hit rate 0.28% among 37,000; AID 2240, 2010; TRPM1 promoter luciferase, 24 h; inhibition, % (concentration not given with the values);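 active = most replicates at 85% or more, or half of them and the mean; inconclusive = half reach 85% but not the mean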;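 also: human melanocyte line stably carrying TRPM1 promoter luciferase reporter; 0% = vehicle wells and 100% = a positive control; the first replicate is given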
YB-1 expr inh: inhibitors of YB-1 gene expression, primary screen, cell-based, fluorescence; hit rate 0.37% among 30,000; AID 434959, 2010; delta delta Cp (YB-1 minus CDIP) (concentration not given with the values); U2OS, qRT-PCR YB-1 vs CDIP delta delta Cp, 16 h; hits give high values; zero = DMSO, each unit about twofold;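 active = delta delta Cp rounded down to an integer at or above 3, about 3 SD of DMSO wells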;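 also: higher means less YB-1 transcript or more CDIP transcript relative to DMSO; stock transfer was 100 nL into about 100 µL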
Hedgehog inh: Hedgehog pathway signaling inhibitors, primary screen, luminescence, Shh-LIGHT2 cells, Gli-luciferase; hit rate 2.1% among 22,000; Shh-LIGHT2 Gli-luciferase reporter, 30 h; inhibition, % (concentration not given with the values);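 active = replicate mean of 65% or more; inconclusive = mean lower but half the replicates past it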;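 also: pathway switched on by Shh-conditioned medium diluted 1 in 25 in low serum; 100 nL library stock added to about 40 µL; 0% = median of neutral wells and 100% = positive control level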
PD-1 reversal: activators reversing PD-1 mediated T-cell inhibition, primary screen, luminescence, primary human CD4 T cells, PD-L1 beads | CellTiter-Glo 96 h | 29,000 tested, under 10 active | activation, % (no concentration beside the values);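 active = replicate mean of 50% or more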;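 also: 0% = median vehicle wells and 100% = positive control; 100 nL library stock added to about 50 µL; numbers are from one replicate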
Numbers without * were called inactive; ? = inconclusive; . = not tested or not shown.

The opening 6 entries, ahead of the listing:
cpd	SMILES	MITF inh	YB-1 expr inh	Hedgehog inh	PD-1 reversal
1	COc1ccc(NC(=O)Nc2ccc3c(c2)CC(=O)N([C@@H](C)CO)C[C@H](C)[C@H](CN(C)S(=O)(=O)c2ccc(Cl)cc2)O3)cc1	37	0.17	15	-0.2
2	C=C1C(=O)O[C@@H]2/C=C(/CO)CC/C=C(/C=O)C[C@@H](O)[C@@H]12	-5	0.67	35	-9.6
3	C=C(C)C(=O)O[C@H]1[C@H]2C(=C)C(=O)O[C@@H]2C[C@@H](C)/C=C/C(=O)[C@](C)(O)[C@@H]1OC(=O)C(=C)C	?	0.48	3	-11
4	C[C@@H]1CN([C@H](C)CO)C(=O)Cc2cc(NC(=O)Nc3ccc(C(F)(F)F)cc3)ccc2O[C@H]1CN(C)S(=O)(=O)c1ccc(F)cc1	25	0.25	12	0.7
5	C=C[C@H]1[C@H](O[C@@H]2O[C@H](CO)[C@@H](O)[C@H](O)[C@H]2O)OC=C2C(=O)N3Cc4c([nH]c5ccccc5c4=O)[C@@H]3C[C@H]21	14	0.4	-12	0.2
6	O=S(=O)(NCC1CCCO1)c1ccc(Br)cc1 (stereo not given)	-4	-0.14	20	2.2

Main list, repeating the preview:
cpd	SMILES	MITF inh	YB-1 expr inh	Hedgehog inh	PD-1 reversal
1	COc1ccc(NC(=O)Nc2ccc3c(c2)CC(=O)N([C@@H](C)CO)C[C@H](C)[C@H](CN(C)S(=O)(=O)c2ccc(Cl)cc2)O3)cc1	37	0.17	15	-0.2
2	C=C1C(=O)O[C@@H]2/C=C(/CO)CC/C=C(/C=O)C[C@@H](O)[C@@H]12	-5	0.67	35	-9.6
3	C=C(C)C(=O)O[C@H]1[C@H]2C(=C)C(=O)O[C@@H]2C[C@@H](C)/C=C/C(=O)[C@](C)(O)[C@@H]1OC(=O)C(=C)C	?	0.48	3	-11
4	C[C@@H]1CN([C@H](C)CO)C(=O)Cc2cc(NC(=O)Nc3ccc(C(F)(F)F)cc3)ccc2O[C@H]1CN(C)S(=O)(=O)c1ccc(F)cc1	25	0.25	12	0.7
5	C=C[C@H]1[C@H](O[C@@H]2O[C@H](CO)[C@@H](O)[C@H](O)[C@H]2O)OC=C2C(=O)N3Cc4c([nH]c5ccccc5c4=O)[C@@H]3C[C@H]21	14	0.4	-12	0.2
6	O=S(=O)(NCC1CCCO1)c1ccc(Br)cc1 (stereo not given)	-4	-0.14	20	2.2
7	COc1ccccc1C(=O)CSc1nnc(-c2ccccc2Cl)n1-c1ccccc1	3	.	.	3.6
8	CC(NS(=O)(=O)c1ccccc1)C(=O)Nc1ccc2c(c1)OCCO2 (stereo not given)	-12	.	.	0.8
9	CC(C)C[C@@H](NC(=O)OCC1c2ccccc2-c2ccccc21)C(=O)O	-55	0.32	-150	.
10	CSc1ccccc1NC(=O)CSc1nccn1C	-7	.	.	0.8
11	COc1ccc(NC(=O)N(C)C[C@@H]2Oc3c(NC(=O)C4CCOCC4)cccc3C(=O)N([C@@H](C)CO)C[C@@H]2C)cc1	-11	-0.2	.	-0.3
12	COc1ccc(NC(=O)Nc2cccc3c2O[C@H](CN(C)S(=O)(=O)c2cn(C)cn2)[C@H](C)CN([C@H](C)CO)C3=O)cc1	-7	-0.076	-29	4.9
13	CC(C)NC(=O)N(C)C[C@@H]1Oc2ccc(NC(=O)c3ccncc3)cc2C(=O)N([C@@H](C)CO)C[C@H]1C	12	-0.18	.	.
14	C[C@H]1CN([C@@H](C)CO)C(=O)c2cc(NC(=O)Nc3ccccc3)ccc2O[C@H]1CN(C)CC1CCCCC1	-11	-0.2	.	2.0
15	CC(C)NC(=O)N(C)C[C@H]1Oc2ccc(NC(=O)Nc3ccc(C(F)(F)F)cc3)cc2C(=O)N([C@@H](C)CO)C[C@@H]1C	5	0.28	-19	-1.2
16	Cc1cc(Cl)ccc1NC(=O)c1ccc(OCC(=O)Nc2ccccc2)cc1	2	.	.	-0.8
17	COc1ccc(NC(=O)Nc2ccc3c(c2)C(=O)N([C@H](C)CO)C[C@H](C)[C@@H](CN(C)S(=O)(=O)c2ccc(Cl)cc2)O3)cc1	-4	-0.37	21	-0.1
18	COc1ccc(S(=O)(=O)N(C)C[C@H]2Oc3ccc(NS(=O)(=O)c4ccc(F)cc4)cc3CC(=O)N([C@@H](C)CO)C[C@H]2C)cc1	-19	0.2	-38	-2.8
19	C[C@@H]1CN([C@H](C)CO)C(=O)c2cccc(NC(=O)NC3CCCCC3)c2O[C@@H]1CN(C)S(=O)(=O)c1cccs1	-1	0.13	3	0.6
20	Cc1ccc(OCC(=O)O)c(C)c1	14	0.62	-11	0.1

Down the list, from the results shown.
MITF inh for entries 13–17 → 12, -11, 5, 2, -4

Carrying on:
cpd	SMILES	MITF inh	YB-1 expr inh	Hedgehog inh	PD-1 reversal
21	O=C(O)c1cccc(CSc2nnc(Cc3ccccc3)o2)c1	22	.	.	2.4
22	COc1ccc(NC(=O)N(C)C[C@@H]2Oc3ccc(NC(=O)NC4CCCCC4)cc3C(=O)N([C@@H](C)CO)C[C@@H]2C)cc1	0	0.1	-12	-0.7
23	COc1ccc(NC(=O)Nc2ccc3c(c2)C(=O)N([C@@H](C)CO)C[C@@H](C)[C@H](CN(C)S(C)(=O)=O)O3)cc1	-7	0.15	-103	.
24	C[C@@H]1CN([C@@H](C)CO)C(=O)c2cc(NC(=O)Cn3cnnn3)ccc2O[C@H]1CN(C)S(=O)(=O)c1ccc(Cl)cc1	2	-0.2	.	2.4
25	CC(C)NC(=O)Nc1n[nH]c(Nc2ccc(Cl)cc2)n1	-26	-0.7	.	-0.4
26	COc1ccc(S(=O)(=O)Nc2ccc3c(c2)C(=O)N([C@@H](C)CO)C[C@@H](C)[C@@H](CN(C)C(=O)NC2CCCCC2)O3)cc1	-1	0.18	-8	0.4
27	C[C@H]1CN([C@@H](C)CO)C(=O)Cc2cc(NC(=O)CCC(F)(F)F)ccc2O[C@H]1CN(C)Cc1ccc(C(=O)Nc2ccccc2N)cc1	15	-0.22	.	-4.9
28	C[C@@H]1CN([C@H](C)CO)C(=O)c2cccc(NC(=O)Nc3ccccc3)c2O[C@H]1CN(C)S(=O)(=O)c1ccccc1	2	-0.17	-16	0.3
29	COc1cc(NC(=O)CCN2C(=O)c3ccccc3C2=O)cc(OC)c1	-9	.	.	0.3
30	C/C=C/C=C/C(=O)c1cc(C)c(O)c(C)c1O	0	-0.44	9	-8.3
31	COc1ccc(NC(=O)C2CCCCC2C(=O)O)cc1OC (stereo not given)	-5	.	.	2.9
32	C[C@@H]1CCCCO[C@H](CN(C)CC2CCCCC2)[C@@H](C)CN([C@H](C)CO)C(=O)c2cc(NC(=O)Nc3cccc4ccccc34)ccc2O1	1	0.52	30	-8.6
33	CCOC(=O)C(C)Oc1ccc2c(=O)c(-c3csc(C)n3)coc2c1 (stereo not given)	-45	-0.13	.	-0.1
34	C[C@H]1CN([C@@H](C)CO)C(=O)c2cccc(N(C)C)c2O[C@H]1CN(C)Cc1ccncc1	-8	0.024	-33	0.2
35	Cc1noc(C)c1S(=O)(=O)Nc1ccc2c(c1)C(=O)N([C@H](C)CO)C[C@@H](C)[C@@H](CN(C)Cc1ccc(C(=O)Nc3ccccc3N)cc1)O2	7	-0.7	.	-2.8
36	CCOC(=O)Cn1c(-c2cccnc2)nc(-c2ccccc2)c1-c1ccccc1	3	0.024	-5	-12
37	CNC[C@H]1OCCCC[C@@H](C)Oc2ccc(NS(C)(=O)=O)cc2C(=O)N([C@H](C)CO)C[C@@H]1C	5	0.41	.	1.3
38	C[C@H]1CN([C@@H](C)CO)C(=O)c2cccc(NS(=O)(=O)c3ccc(F)cc3)c2O[C@@H]1CN(C)Cc1ccc(C(=O)O)cc1	-5	0.06	-11	1.7
39	O=C(NCc1ccccc1)NC1CCCCC1	-30	-0.18	-28	0.0
40	Cc1ccc(S(=O)(=O)N(C)C[C@@H]2Oc3ccc(NC(=O)NC4CCCCC4)cc3C(=O)N([C@H](C)CO)C[C@@H]2C)cc1	-11	0.32	.	-1.9
41	C[C@@H]1CN([C@H](C)CO)C(=O)Cc2cc(NS(=O)(=O)c3cn(C)cn3)ccc2O[C@@H]1CN(C)Cc1ccncc1	-21	0.067	-22	.
42	COc1ccc(CCC(=O)O)c(O)c1	-14	0.57	-21	0.1
43	Nc1cccc(-c2ccc(CO)o2)c1	13	-0.6	48	0.7
44	O=C(O)CCC1OC(=O)C(=O)C1c1ccccc1 (stereo not given)	.	0.18	?	.
45	Cc1noc(C)c1S(=O)(=O)Nc1ccc2c(c1)C(=O)N([C@@H](C)CO)C[C@@H](C)[C@H](CN(C)S(=O)(=O)c1cccs1)O2	-3	0.29	.	1.9
46	C[C@@H]1CN([C@H](C)CO)C(=O)c2cccc(NS(=O)(=O)c3cn(C)cn3)c2O[C@@H]1CN(C)S(=O)(=O)c1cccs1	0	-0.44	-3	3.3
47	Cc1c(Cc2ccccc2)c(=O)oc2cc(OC(C)C)ccc12	19	0.12	6	-0.4
48	C[C@@H]1CN([C@H](C)CO)C(=O)c2cccc(NC(=O)Nc3ccc4c(c3)OCO4)c2O[C@@H]1CN(C)C(=O)Nc1ccc(C(F)(F)F)cc1	5	-0.33	25	-0.5
49	C[C@@H]1CN([C@H](C)CO)C(=O)c2cc(NS(C)(=O)=O)ccc2O[C@@H]1CN(C)S(=O)(=O)c1cccs1	0	-0.26	.	0.3
50	Cc1cc(C(=O)Nc2cccc3c2O[C@@H](CN(C)S(=O)(=O)c2cccs2)[C@H](C)CN([C@@H](C)CO)C3=O)n(C)n1	-1	-0.5	15	.
51	O=[N+]([O-])c1ccc(NCCNS(=O)(=O)c2ccc(Br)cc2)c(C(F)(F)F)c1	17	.	.	-1.9
52	OC(CNCc1ccco1)c1ccccc1 (stereo not given)	-20	.	.	0.0
53	COc1ccc2oc(-c3ccccc3)c(O)c(=O)c2c1	-76	0.61	3	1.9
54	C[C@H](CO)N1C[C@H](C)[C@H](CN(C)C(=O)NC2CCCCC2)Oc2ccc(NC(=O)C3CC3)cc2C1=O	-7	-0.33	.	0.3
55	N#CCC(=O)N=Cc1ccc(Cl)cc1Cl	3	-0.081	-31	-0.1
56	Cc1noc(C)c1NC(=O)N(C)C[C@@H]1OCCCC[C@@H](C)Oc2ccc(NC(=O)NC(C)C)cc2C(=O)N([C@H](C)CO)C[C@@H]1C	-7	-0.13	20	2.2
57	C[C@H](CO)N1C[C@H](C)[C@@H](CN(C)S(=O)(=O)c2ccc(F)cc2)Oc2ccc(NC(=O)NC3CCCCC3)cc2C1=O	5	-0.024	.	2.1
58	C[C@@H]1CN([C@@H](C)CO)C(=O)c2cccc(NC(=O)c3ccncc3)c2O[C@H]1CN(C)Cc1ccccc1	8	0.032	4	-2.6
59	Cc1ccc(S(=O)(=O)N(C)C[C@H]2Oc3ccc(NC(=O)Nc4ccc(F)cc4)cc3C(=O)N([C@@H](C)CO)C[C@@H]2C)cc1	-5	-0.17	.	0.6
60	C[C@H]1CN([C@@H](C)CO)C(=O)Cc2cc(NC(=O)C3CCCCC3)ccc2O[C@@H]1CN(C)C(=O)Nc1ccc(F)cc1	-4	-0.69	-23	-0.4
61	NC(=S)c1ccc(N2CCC(C(F)(F)F)CC2)nc1	42	0.21	25	-1.2
62	C[C@@H]1CN([C@@H](C)CO)C(=O)c2cc(NC(=O)C3CCCCC3)ccc2O[C@H]1CN(C)C(=O)Nc1ccccc1	4	0.32	21	0.6
63	C[C@@H]1CCCCO[C@@H](CN(C)C(=O)Nc2ccc3c(c2)OCO3)[C@@H](C)CN([C@H](C)CO)C(=O)c2cc(NC(=O)Cc3ccccc3)ccc2O1	-29	-0.71	14	.
64	Cc1ccc(S(=O)(=O)N(C)C[C@@H]2Oc3c(NC(=O)c4nc5ccccc5s4)cccc3C(=O)N([C@H](C)CO)C[C@@H]2C)cc1	-14	-0.08	14	.
65	C[C@H](CO)N1C[C@H](C)[C@H](CN(C)Cc2ccccc2)Oc2ccc(NC(=O)Cc3ccccc3)cc2C1=O	16	0.067	-6	-1.4
66	C[C@@H]1CN([C@H](C)CO)C(=O)c2cccc(NS(=O)(=O)c3ccc(Cl)cc3)c2O[C@@H]1CN(C)Cc1ccc2c(c1)OCO2	-9	-0.13	19	-0.9
67	C[C@H](CO)N1C[C@H](C)[C@@H](CN(C)S(=O)(=O)c2ccc(Cl)cc2)Oc2ccc(NC(=O)C3CC3)cc2C1=O	2	-0.12	4	-1.1
68	C[C@@H]1CN([C@H](C)CO)C(=O)Cc2cc(NC(=O)C3CC3)ccc2O[C@@H]1CN(C)Cc1ccc(C(=O)Nc2ccccc2N)cc1	11	-0.14	.	-0.8
69	CC(C)NC(=O)N(C)C[C@H]1Oc2ccc(NC(=O)C3CC3)cc2CC(=O)N([C@@H](C)CO)C[C@H]1C	-5	0.31	-17	.
70	N#Cc1c(SCc2ccccc2Cl)nc2c(c1C(F)(F)F)CCc1occc1-2	-3	0.18	.	-2.7
71	Cc1c(Cl)cccc1N(CC(=O)Nc1cc(Cl)cc(Cl)c1)S(C)(=O)=O	4	.	.	0.1

Screening data: PubChem BioAssay, Broad Institute

Some of the compounds tested, so the mix of outcomes need not match the whole.
